# Ecoli rRNA inh: reduced GFP signal of wild-type E. coli, primary screen, bacterial rRNA inhibitor project, GFP/RFP fluorescence, OD600, single point | E. coli WT GFP vs humanized-ribosome RFP mutants, 24 h; hits give low values; DMSO median 0, no signal -100 | GFP signal change (wild-type ribosome), % (test concentration not listed) | actives 1.6% (n = 350,000) | AID 720706, 2013;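 active means significant combined selectivity score with lowered wild-type GFP, culture density cut under 30%, mutant RFP and density less affected; inactive means any of these conditions unmet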; further: one replicate is shown; some compounds called inactive have numbers as strong as hits
# Beta2AR agonist: beta2AR agonists driving receptor internalization, primary screen, cell-based, FAP fluorogen, flow cytometry. Am2.2-beta2AR cells; reference of the scale not given here. response, % (concentration not given with the values). actives 0.43% (n = 340,000);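 active means response above a set limit, near 3 SD of response in nonfluorescent compounds, cut at about 42% in these data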;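 further: stock transfer was 100 nL into about 11 µL; a reference agonist was the positive control; negative values mostly stem from fluorescent compounds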
# Target sequence (P07550 whole entry, looked up): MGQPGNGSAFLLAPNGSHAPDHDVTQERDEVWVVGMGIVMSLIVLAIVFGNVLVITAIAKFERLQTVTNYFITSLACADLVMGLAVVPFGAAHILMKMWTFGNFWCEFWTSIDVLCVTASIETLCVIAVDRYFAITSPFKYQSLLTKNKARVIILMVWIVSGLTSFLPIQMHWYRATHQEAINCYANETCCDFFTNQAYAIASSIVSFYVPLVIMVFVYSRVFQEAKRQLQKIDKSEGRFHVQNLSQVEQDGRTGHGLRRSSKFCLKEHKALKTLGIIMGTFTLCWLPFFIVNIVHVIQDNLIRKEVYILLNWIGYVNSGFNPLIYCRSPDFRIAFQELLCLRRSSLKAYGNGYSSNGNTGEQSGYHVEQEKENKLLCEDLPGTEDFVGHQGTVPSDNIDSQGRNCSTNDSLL
# Ecoli rRNA inh OD600: recorded beside Ecoli rRNA inh, whose call it bears; OD600 change, %; measured here: OD600 growth;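 optical density of the mix in the first replicate; 0 = DMSO median and -100 = no signal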
# Ecoli rRNA inh RFP: recorded beside Ecoli rRNA inh, whose call it bears; RFP signal change, %; measured here: RFP humanized mutant strains;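 first replicate; 0 = DMSO median and -100 = no signal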
# * hit, by the source's call. A portion of the library; the hit share may differ from the screen's.
SMILES,Ecoli rRNA inh,Ecoli rRNA inh OD600,Ecoli rRNA inh RFP,Beta2AR agonist
Cc1ccc(CN2C(=O)COc3cc(NS(C)(=O)=O)ccc32)cc1,-3,0,3.1,5
CCOC(=O)c1cc2c(c(CCO)n1)[C@@H](CCO)N(S(=O)C(C)(C)C)C2 (stereo partly specified),11,12,-1.6,-1
CC(C)CN1CCN(CCCOC(=O)Nc2cccc3ccccc23)CC1C (stereo unspecified),-1,1,3.6,-10
CCCCNc1c(-c2ccc(OC)c(SC(C)CC)c2)nc2cc(C)ccn12 (stereo unspecified),-23,-29,-4.5,25
O=C(COC(=O)CNS(=O)(=O)c1ccc(Cl)cc1)NC1CCCCC1,3,5,-2.3,-3
CN(C(=O)c1ccc(NC(=O)Cc2ccc(NC(=O)C3CCN(C(=O)C4CCC4)CC3)cc2)cc1)C1CCCC1,1,-9,2.0,-2
CCCCNS(=O)(=O)CCNCc1ccccc1OC,10,14,1.2,7
COc1ccc(OC)c(C(=O)c2ccc([N+](=O)[O-])cc2)c1,-2,5,2.8,5
O=C1CCC[C@@H]2Cc3nc4ccc(O)cc4cc3[C@@H]3CCN1[C@H]23,7,7,-1.3,4
CSc1cccc(NC(=O)C2CCCN(S(=O)(=O)c3cnc[nH]3)C2)c1 (stereo unspecified),-4,-8,-7.4,4
Cc1ccc(S(=O)(=O)NCC(=O)OC(C)C(=O)NC2CCCCC2C)cc1C (stereo unspecified),-2,-7,0.9,3
CCCCNCCS(=O)(=O)NCc1ccccc1OC,1,-4,7.1,-4
CC(C)N(Cc1ccccc1)C(=O)COC(=O)c1ccc(O)cc1,2,2,0.1,6
O=c1[nH]nc(-c2n[nH]c(=O)o2)o1,14,15,-0.5,-9
CCCCn1c(N)c(N(CCOC)C(=O)c2oc3ccc(Br)cc3c2C)c(=O)[nH]c1=O,4,4,1.2,3
CC(=O)NCc1ccc(C(=O)CN2C(=O)NC3(CCCCC3C)C2=O)s1 (stereo unspecified),0,7,-5.1,0
Cc1ccc2c(c1)c1ccc3c(c1n2C)C(=O)C=CC3=O,-13,2,2.4,93*
CCOC(=O)C1CCN(C(=O)c2ccccc2)C(CC)C1=O (stereo unspecified),0,8,-0.3,-12
CCNc1nc(C)nc2c1cnn2C,10,8,2.4,-3
Cc1ccc(NC(=O)CCC(=O)c2ccccc2)cc1,10,6,-1.4,-2
CCN(C[C@H]1N[C@@](Cc2ccccc2)(C(=O)OC)[C@H]2C(=O)N(C)C(=O)[C@@H]12)C(=O)c1ccc(C)cc1,-4,1,-2.0,10
O=C(Nc1cccc([N+](=O)[O-])c1)N(c1ccccc1)c1ccccc1,-7,9,-1.1,10
O=C1C=CC(=O)N1Cc1ccncc1,14,21,2.4,-1
CC1CCCC(CC(N)=O)CC1 (stereo unspecified),16,8,-0.2,-3
NC(=O)c1ccsc1NC(=O)CCS(=O)(=O)c1ccc(Cl)cc1,0,-2,0.0,1
COc1ccc(C2CC(=O)Oc3cc(OC)ccc32)cc1 (stereo unspecified),-4,-15,-5.4,-7
O=[N+]([O-])c1ccc(CSc2ccc(S(=O)(=O)N3CCOCC3)cn2)cc1,8,6,2.1,3
O=C(Nc1ccccc1N1CCCCC1)c1ccc([N+](=O)[O-])o1,9,12,-4.5,-3
COc1cccc(CNC(=O)CN2C(=O)NC(c3ccccc3)(c3ccccc3)C2=O)c1,-1,-2,-2.0,-5
CN(Cc1c(F)cccc1Cl)C(=O)c1cccc(S(=O)(=O)N2CCN(Cc3ccccc3)CC2)c1,-7,-19,11,-6
COc1ccc(NC(=O)CN(C)CC(=O)Nc2cccc3ccccc23)c(OC)c1,-2,5,3.3,0
CSc1ccc(Cl)c(C(=O)OCC(=O)N2CCN(c3ccccc3)CC2)c1,-12,-19,3.6,3
CCCCn1c(N)c(N(CCC(C)C)C(=O)COC(=O)c2cccnc2SC)c(=O)[nH]c1=O,6,8,-1.4,1
Cc1ccc([C@H]2C(C(=O)O)=CC[C@@H](c3ccc4c(c3)OCO4)N2S(=O)(=O)c2ccc(C)cc2)cc1,-9,-30,-7.4,1
CCOc1ccc(CCNC(=O)COC(=O)CSc2ccc(C)cc2)cc1OCC,2,4,-0.7,-2
CC(=O)Nc1sc(C)c(C)c1C(=O)OCC(=O)N(CCC#N)c1cc(C)cc(C)c1,11,5,0.1,4

# 18 entries from above, with the structure last:
Ecoli rRNA inh	Ecoli rRNA inh OD600	Ecoli rRNA inh RFP	Beta2AR agonist	structure
-1	1	3.6	-10	CC(C)CN1CCN(CCCOC(=O)Nc2cccc3ccccc23)CC1C (stereo unspecified)
-23	-29	-4.5	25	CCCCNc1c(-c2ccc(OC)c(SC(C)CC)c2)nc2cc(C)ccn12 (stereo unspecified)
3	5	-2.3	-3	O=C(COC(=O)CNS(=O)(=O)c1ccc(Cl)cc1)NC1CCCCC1
1	-9	2.0	-2	CN(C(=O)c1ccc(NC(=O)Cc2ccc(NC(=O)C3CCN(C(=O)C4CCC4)CC3)cc2)cc1)C1CCCC1
10	14	1.2	7	CCCCNS(=O)(=O)CCNCc1ccccc1OC
-2	5	2.8	5	COc1ccc(OC)c(C(=O)c2ccc([N+](=O)[O-])cc2)c1
7	7	-1.3	4	O=C1CCC[C@@H]2Cc3nc4ccc(O)cc4cc3[C@@H]3CCN1[C@H]23
-4	-8	-7.4	4	CSc1cccc(NC(=O)C2CCCN(S(=O)(=O)c3cnc[nH]3)C2)c1 (stereo unspecified)
-2	-7	0.9	3	Cc1ccc(S(=O)(=O)NCC(=O)OC(C)C(=O)NC2CCCCC2C)cc1C (stereo unspecified)
1	-4	7.1	-4	CCCCNCCS(=O)(=O)NCc1ccccc1OC
2	2	0.1	6	CC(C)N(Cc1ccccc1)C(=O)COC(=O)c1ccc(O)cc1
14	15	-0.5	-9	O=c1[nH]nc(-c2n[nH]c(=O)o2)o1
4	4	1.2	3	CCCCn1c(N)c(N(CCOC)C(=O)c2oc3ccc(Br)cc3c2C)c(=O)[nH]c1=O
0	7	-5.1	0	CC(=O)NCc1ccc(C(=O)CN2C(=O)NC3(CCCCC3C)C2=O)s1 (stereo unspecified)
-13	2	2.4	93*	Cc1ccc2c(c1)c1ccc3c(c1n2C)C(=O)C=CC3=O
0	8	-0.3	-12	CCOC(=O)C1CCN(C(=O)c2ccccc2)C(CC)C1=O (stereo unspecified)
10	8	2.4	-3	CCNc1nc(C)nc2c1cnn2C
10	6	-1.4	-2	Cc1ccc(NC(=O)CCC(=O)c2ccccc2)cc1

# (further entries)
SMILES,Ecoli rRNA inh,Ecoli rRNA inh OD600,Ecoli rRNA inh RFP,Beta2AR agonist
O=C1c2ccccc2C(=O)N1CCCCNc1ccccc1,-1,-17,-1.9,-6
Cc1ccc(C(=O)N2[C@@H]3CN(C)C(=O)[C@@]2(C)[C@H]2C(=O)N(Cc4ccccc4)C(=O)[C@@H]32)cc1,6,0,-0.9,-20
O=C(NCc1ccccc1)c1cccc(NC(=O)C2CCC2)c1,-9,-2,-1.1,-5
O=S(=O)(Nc1ccccc1)C1CCCCC1,11,21,-0.5,0
CCN1C[C@@H]2[C@@H]3C(=O)N(C)C(=O)[C@@H]3[C@](C)(C1=O)N2C(=O)c1ccc(C)cc1,9,-2,3.3,-1
CN(CCCn1cnc2c(OCc3ccccc3)ncnc21)CCc1ccccn1,7,8,1.2,1
Nc1ccccc1C(=O)N1O[C@@H]2C=C[C@H]1CC2,12,16,0.1,-2
COc1ccc(CCNC(=O)COC(=O)c2cccs2)cc1,3,-4,-1.0,-3
COc1ccc(CCN2CC(C(=O)OC(C)C(=O)Nc3ccc(NC(C)=O)cc3)CC2=O)cc1OC (stereo unspecified),6,14,-2.0,-3
CC(C)C[C@@H](CN)NC(=O)c1nc[nH]c1C(=O)N[C@@H](C)C(=O)CNC[C@H](C)NC(=O)c1nc[nH]c1C(=O)N[C@@H](CC(=O)O)C(=O)O,26,7,-1.5,-5
O=C(Nc1ccccc1Cl)C(Cl)C(=O)c1ccccc1 (stereo unspecified),11,7,3.6,6
COc1cc(CN(C)c2ccc(S(=O)(=O)N3CCCC3)cn2)ccc1OC(F)F,0,-1,-1.1,20
CCCSc1nc(N)nc2c1ncn2C1OC(CO)C(O)C1O (stereo unspecified),-2,-3,-2.3,9
Clc1ccc2c(c1)C1CC2CCN1Cc1ccccc1 (stereo unspecified),-4,1,-1.7,3
CC(C)CC(C(=O)OCC(=O)N1CCN(c2ccccc2)CC1)N1C(=O)c2ccccc2C1=O (stereo unspecified),-5,-11,9.2,0
CC1(C)C(=O)Nc2ccccc2N1C(=O)COC(=O)c1cc(S(C)(=O)=O)ccc1Cl,1,0,-2.7,-2
Cc1ccc(S(=O)(=O)N(CCC(=O)NCc2ccc(S(N)(=O)=O)cc2)c2ccccc2)cc1,-2,-2,2.3,0
COc1ccc2nc(SC(C)C(=O)NC3CCCCC3)[nH]c2c1 (stereo unspecified),-5,-4,0.2,-3
Cc1c(NS(=O)(=O)c2ccc(C(=O)N(C)Cc3cccc(Cl)c3Cl)cc2)c(=O)n(-c2ccccc2)n1C,-9,-19,5.3,13
COc1ccc(NC(=O)c2ccc(NC(=O)CN3CCN(c4ccc(O)cc4)CC3)cc2)cc1,-5,14,-3.5,-7
COc1ccc(N=C2C=CC(=O)O2)cc1,17,11,1.0,0
CCCCC[C@H](O)/C=C/C1C(=O)C=C[C@H]1C/C=C\CCCC(=O)OC (stereo partly specified),-3,-24,-1.7,9
COc1ccc(O)c(CN2CC3CCC(CC3)C2)c1,6,16,4.1,1
O=[N+]([O-])c1ccc2[nH]c(=S)sc2c1,-7,-14,-3.2,1
O=S(=O)(CC=CCS(=O)(=O)c1ccccc1)c1ccccc1,7,6,-0.5,-8
O=C(CN1CCc2ccccc2C1)Nc1ccccc1C(=O)NC1CC1,5,0,-2.0,-2
CC(=O)c1cc2c(cc1NC(=O)c1ccc(-n3nc(C)cc3C)cc1)OCO2,4,2,3.5,5
N#Cc1ccc(C(=O)N2CCN(C(=O)C3CCCO3)CC2)cc1 (stereo unspecified),5,9,-2.2,2
CC(C)C(Cl)=NOC(=O)Nc1ccc(F)cc1,-4,10,-5.2,-6
O=C(O)C1C2OC(C(Br)C2Br)C1C(=O)O (stereo unspecified),7,5,4.4,-4
CSc1nc(N)nc2c1ncn2Cc1ccccc1,4,-4,-0.1,-8
CC(=O)CC[N+](C)(C)C,24,28,3.9,-2
CCN(C(=O)COC(=O)C(C)(C)Oc1ccc(Cl)cc1)c1c(N)n(Cc2ccccc2)c(=O)[nH]c1=O,14,16,2.7,-5
O=C(CC(=O)c1cccnc1)c1ccccc1,-34,-41,-10,-9
O=C(CN1CSCC1=O)N1CCN(S(=O)(=O)c2cc(C(F)(F)F)ccc2Cl)CC1,-1,4,-2.3,-7
C=CCOc1c(Cl)cc(Cl)cc1S(=O)(=O)NCCO,1,-1,-6.8,1
CCCc1cc(C(=O)Nc2sc(C)c(C)c2C(=O)OCC)no1,-5,5,0.3,-3
Cc1cnc(C(=O)NCC(=O)Nc2ccccc2Br)cn1,0,3,0.2,-2
O=C1ON=C(c2ccccc2)/C1=C/c1cccnc1,16,17,3.3,-3
Cc1cccc(C2c3c(n(C)c(=O)n(C)c3=O)N=C3c4ccccc4C(=O)C32)c1 (stereo unspecified),-4,-4,-3.6,-1
COC(=O)CCC1(C(N)=O)CCC(=O)c2ccccc21 (stereo unspecified),14,21,-2.1,-2
COc1ccc(OC(=O)N2C/C(=C/c3ccccc3)C(=O)/C(=C\c3ccccc3)C2)cc1,13,14,9.3,24
O=C(CCNC(=O)c1ccc([N+](=O)[O-])cc1)NCC1COc2ccccc2O1 (stereo unspecified),-6,9,-1.6,-4
CC(O)(c1cccs1)C(C(=O)O)c1ccccc1 (stereo unspecified),4,11,-3.8,4
O=C(COC(=O)c1cc(=O)c2ccccc2o1)Nc1c(F)c(F)c(F)c(F)c1F,-2,6,0.3,-6
COc1cccc(C=NNC(=S)NN=Cc2cccc(OC)c2OC)c1OC,-10,-9,4.1,1
COc1cccc(/C=N/NC(=O)c2ccc(-n3cnnn3)cc2)c1,16,14,-0.3,-4
COc1ccc(N(Cc2ccccc2)S(=O)(=O)c2cccc(C(=O)NCC3CCCO3)c2)cc1 (stereo unspecified),-24,-44,-5.9,17
CN(C)C(=O)CSc1ccc(S(=O)(=O)N2CCCC2)cn1,3,4,-0.5,-2
CCN(CC(=O)Nc1c(F)cccc1F)C(=O)c1ccc(=O)n(C)n1,-4,2,-2.1,-3
Cc1ccc(S(=O)(=O)N2[C@@H](c3ccc(C(C)C)cc3)C(C(=O)O)=C[C@H]2C(C)(C)C)cc1,-7,-8,0.9,22
O=C1[C@@H](Oc2ccccc2)[C@@H](c2ccccc2)N1c1ccccc1,-8,-11,2.0,-1
CC(=NNC(=S)N1CCN(C2CCCCCC2)CC1)c1ccccn1,16,7,1.5,10
CC(=O)Nc1ccc(S(=O)(=O)NCC2(N3CCOCC3)CCCCC2)cc1,8,13,-0.1,-12
COc1ccc(S(=O)(=O)N2CCN(C(=O)c3ccc(=O)[nH]n3)CC2)cc1OC,6,14,-0.3,-2
O=C(O)CC(CC(=O)O)n1cccc1,10,22,-4.7,-4
Cn1ncc(=S)[nH]c1=S,1,9,0.6,-4
COc1cc2c(c(NC(C)=O)c1)N(C(C)=O)CCC2,19,22,2.2,7

# Assay outcomes deposited in PubChem by several laboratories.
